UUG fidelity: modulators of yeast start codon fidelity, primary screen, whole organism, S. cerevisiae, single point, plate reader. AID 602363, 2012. activity score, % at 18.7 µM. hit rate 0.13% among 350,000. S. cerevisiae UUG-firefly luciferase reporter, luminescence/redox ratio;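 active = replicate mean at a twofold rise or more, about +100% in these data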;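 note: firefly luciferase made from a UUG start codon reports start codon fidelity; reporter light over untreated wells divided by growth signal over untreated wells; some hits fall short of that in this replicate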
PABP FP inh: PABP poly(A) RNA binding inhibitors, primary screen, biochemical, fluorescence polarization, uHTS; AID 2014, 2009; hit rate 1% among 290,000; Polyadenylate-binding protein 1 (Homo sapiens), P11940; inhibition, % at 35 µM;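 active = 50% or more with normal probe brightness, or confirmed in later tests; inconclusive = above 50% with abnormal brightness, or retests that disagree; inactive = below 50% or failed in later tests; about a fifth of its hits are not listed in these tables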;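 note: calls also rest on retests at 20 µM and on dose response follow-up; controls were probe without protein and protein plus probe with vehicle; some compounds called inactive have numbers as strong as hits; many hits fall short of the cut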
Target sequence (P11940 whole entry, looked up): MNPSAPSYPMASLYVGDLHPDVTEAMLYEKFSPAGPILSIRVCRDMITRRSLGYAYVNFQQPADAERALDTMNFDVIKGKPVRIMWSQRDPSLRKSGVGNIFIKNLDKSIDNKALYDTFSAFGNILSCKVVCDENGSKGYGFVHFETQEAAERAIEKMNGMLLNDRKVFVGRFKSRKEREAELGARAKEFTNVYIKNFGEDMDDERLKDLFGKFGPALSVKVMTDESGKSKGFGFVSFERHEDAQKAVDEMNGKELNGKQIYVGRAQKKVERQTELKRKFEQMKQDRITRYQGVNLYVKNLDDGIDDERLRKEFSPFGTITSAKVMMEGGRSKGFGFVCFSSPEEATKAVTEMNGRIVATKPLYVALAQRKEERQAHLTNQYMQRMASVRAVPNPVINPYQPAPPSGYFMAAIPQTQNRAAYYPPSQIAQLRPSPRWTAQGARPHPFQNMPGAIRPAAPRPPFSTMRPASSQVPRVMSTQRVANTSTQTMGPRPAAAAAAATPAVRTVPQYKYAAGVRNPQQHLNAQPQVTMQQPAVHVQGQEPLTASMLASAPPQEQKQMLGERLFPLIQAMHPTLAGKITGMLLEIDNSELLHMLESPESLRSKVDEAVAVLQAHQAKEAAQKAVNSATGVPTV
eIF4H FP inh: human eIF4H binding inhibitors, primary screen, translation initiation inhibitor project, biochemical, uHTS, fluorescence polarization. Eukaryotic translation initiation factor 4H (Homo sapiens), Q15056. eIF4H fluorescence polarization binding assay. inhibition, % at 35 µM. hit rate 0.94% among 290,000. AID 2012, 2009;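 active = 50% or more with normal probe brightness, or confirmed in later tests; inconclusive = above 50% with abnormal brightness, or retests that disagree; inactive = below 50% or failed in later tests; about a fifth of its hits are not listed in these tables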;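 note: calls also rest on retests at 20 µM and on dose response follow-up; 0% = protein and probe with vehicle and 100% = probe without protein; strong numbers were not always called active; many hits fall short of the cut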
Rce1 inh: yeast Rce1p protease inhibitors, primary screen, biochemical, fluorescence, cell-free homogeneous; hit rate 0.27% among 290,000; yeast membranes, quenched prenylated peptide cleavage fluorescence; calls only;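 active = fall in fluorescence gain of 50% or more versus controls, with final raw signal at or below 3038400; inconclusive = same 50% fall but final raw signal above 3038400; inactive = fall in fluorescence gain under 50%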;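 note: plate controls were neutral control wells for no effect and wells lacking membranes for full effect; tested at 10 µM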
Target sequence (Q03530 whole entry, looked up): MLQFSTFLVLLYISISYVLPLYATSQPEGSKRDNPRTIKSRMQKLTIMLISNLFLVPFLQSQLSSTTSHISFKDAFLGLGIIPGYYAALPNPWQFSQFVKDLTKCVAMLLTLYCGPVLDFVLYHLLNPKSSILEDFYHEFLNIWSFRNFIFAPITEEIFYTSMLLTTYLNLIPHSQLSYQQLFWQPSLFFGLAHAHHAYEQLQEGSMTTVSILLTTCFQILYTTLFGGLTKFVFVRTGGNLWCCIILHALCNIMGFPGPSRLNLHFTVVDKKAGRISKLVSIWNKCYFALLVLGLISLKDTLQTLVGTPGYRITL
CSC inhib: cancer stem cell viability inhibitors, primary screen, luminescence | cancer stem cell-like cells viability | inhibition, % at 7.5 µM | hit rate 1.1% among 300,000;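 active = mean at 75% or more and at least half the replicates too; inconclusive = mean and replicates disagree; tested in HMLE shEcad cells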;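 note: 0% = median of negative and 100% = median of positive control wells; the first replicate is given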
HIV Env fusion: inhibitors of HIV-1 Env-driven cell-cell fusion, primary screen, HeLa-JRFL effector, CEM21 target cells, luciferase; inhibition, % at 12.3 µM; hit rate 1.1% among 360,000; AID 651610, 2012;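 active = mean replicate inhibition score of at least 50 and every replicate individually at or above 50; inconclusive = only one of the two criteria met; inactive = mean below 50 and not all replicates reaching 50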;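 note: 0% = plate neutral controls and 100% = maraviroc near 300 nM; one replicate is shown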
MT1-MMP act inh: blockers of MT1-MMP proenzyme processing, primary screen, HT1080 RFP-PRO-GFP cells, GFP/RFP fluorescence; hit rate 0.061% among 360,000; GFP/RFP ratio change, % at 20 µM; GFP/RFP ratio fluorescence, overnight; percent of plate control window, DMSO zero;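 active = GFP/RFP ratio change of at least 30% with cell ATP level not reduced by more than half and red fluorescence within 50% of control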; note: strong numbers were not always called active
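Test system: HT1080 cells expressing an RFP-PRO-GFP fluorescent reporter construct / Compound dosing: single-point 20 µM compound, 1% DMSO / Schedule: cells overnight before dosing, compound overnight, 37 °C, 5% CO2 / Evaluation: GFP/RFP fluorescence ratio / Control set: DMSO and RFP-L50D-GFP cell wells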
eIF4H FP inh retest: also measured in eIF4H FP inh; calls as there; inhibition, %; compound at 20 µM; confirmation average;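 mean of two retest wells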
PABP FP inh retest: second read-out of PABP FP inh, no call of its own (marks repeat the call); inhibition, %; compound at 20 µM; confirmation repeats;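 mean of two retest wells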
MT1-MMP act inh RFP: further read-out of MT1-MMP act inh, marked with its call; RFP signal change, %; measured here: RFP expression control read;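 0 = vehicle wells; hits needed this value within 50% of zero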
* = called active by the depositor; i = inactive; ? = inconclusive; nt = no result given. This is a subset (hit frequency here may not be typical).

Start of the listing, in advance, three compounds:
SMILES	UUG fidelity	PABP FP inh	eIF4H FP inh	Rce1 inh	CSC inhib	HIV Env fusion	MT1-MMP act inh	MT1-MMP act inh RFP	others
Cn1c(=O)c(C(=O)NNC(=O)c2ccccc2Br)c(O)c2ccccc21	-18.7	1.5	14.4	i	-0.8	6.9	7.0	-0.7
CCC(C)n1c(SCc2ccc([N+](=O)[O-])cc2)nc2ccsc2c1=O (stereo unspecified)	-8.4	1.3	-3.1	i	-1.6	nt	-5.5	-12.4
CCOC(=O)N1CCN(c2cc(=O)n(-c3ccc(C)cc3)c(=O)[nH]2)CC1	3.0	-3.3	5.3	i	1.1	17.4	1.4	5.7

Main list, from the start:
SMILES	UUG fidelity	PABP FP inh	eIF4H FP inh	Rce1 inh	CSC inhib	HIV Env fusion	MT1-MMP act inh	MT1-MMP act inh RFP	others
Cn1c(=O)c(C(=O)NNC(=O)c2ccccc2Br)c(O)c2ccccc21	-18.7	1.5	14.4	i	-0.8	6.9	7.0	-0.7
CCC(C)n1c(SCc2ccc([N+](=O)[O-])cc2)nc2ccsc2c1=O (stereo unspecified)	-8.4	1.3	-3.1	i	-1.6	nt	-5.5	-12.4
CCOC(=O)N1CCN(c2cc(=O)n(-c3ccc(C)cc3)c(=O)[nH]2)CC1	3.0	-3.3	5.3	i	1.1	17.4	1.4	5.7
Cc1ccc(C(=O)NC(C#N)=C(Cl)Cl)cc1	nt	-5.2	-14.1	i	nt	-152.1	nt	nt
O=C(CN1C(=O)c2ccccc2C1=O)NCc1ccncc1	-9.9	13.3	10.3	i	-4.4	-45.4	-5.9	-0.9
CCCCn1c(CNC(=O)C(C)(C)C)nc2ccccc21	-8.4	-0.5	-7.3	i	-6.1	-33.2	-4.9	1.6
COc1ccc(N2CCN(C(CNC(C)=O)c3ccco3)CC2)cc1 (stereo unspecified)	nt	-5.9	0.1	i	-3.5	-3.3	-3.4	-0.7
CCOC(=O)C1(Cc2ccccc2)CCCN(Cc2cccc(C(C)=O)c2)C1 (stereo unspecified)	1.3	1.8	-1.9	i	-10.7	14.4	-2.1	1.3
COc1ccc(-c2nc3c(C)cc(Br)cn3c2CC2CCCCC2)cc1OC	57.8	nt	nt	nt	nt	-22.0	-4.5	0.3
Cn1c(N)nc2nc(CCc3ccccc3)c(=O)[nH]c2c1=O	-8.3	42.5	53.6	i	6.5	3.4	-4.0	-0.9	eIF4H FP inh retest=18.0;PABP FP inh retest=42.9
COc1ccc2c(c1OC)C(=O)OC2Nc1ccc(S(=O)(=O)N=C(N)N)cc1 (stereo unspecified)	nt	2.7	0.0	i	3.4	-2.3	-5.8	2.5
CN1CCC(N(C)C(=O)NC2CCCCC2)CC1	nt	20.7	-2.1	i	nt	0.7	0.4	1.1
CNC(=S)SCCOc1ccc(C)cc1	nt	13.0	-4.1	i	8.2	-134.4	0.0	-5.5
O=C(Nc1ccc([N+](=O)[O-])cc1)OCCc1ccccn1	nt	-0.8	-9.7	i	-0.7	-24.1	-0.2	-0.6
C=CSc1sc(Cl)c(N(C)C)c1[N+](=O)[O-]	-17.3	10.4	8.7	i	4.5	19.2	-4.3	-2.7
COc1ccc(N2CCN(C(=O)C34CCC(C)(C(=O)C3)C4(C)C)CC2)cc1 (stereo unspecified)	-10.3	3.7	-5.0	i	nt	nt	-1.0	-1.5
COc1ccc(C)cc1NC1=C(Cl)C(=O)N(C2CCCCC2)C1=O	-6.7	-5.9	15.8	i	-12.3	-7.8	4.3	0.3
CN1CCN(C(=O)c2cc(Cl)ccc2Cl)CC1	-13.1	-8.1	3.5	i	4.0	nt	-6.5	-3.6
Cc1ccc(C)c2c1sc(=NC(=O)CN1C(=O)CCC1=O)n2C	-16.4	1.1	-11.3	i	0.3	3.0	0.8	0.8
O=C1C=CC(=C(c2ccc(O)cc2)c2ccc(O)cc2)C=C1	0.7	nt	nt	nt	nt	27.3	-6.9	-21.3
COc1ccc(C2/C(=C(/O)c3ccc(C)cc3)C(=O)C(=O)N2C)c(OC)c1 (stereo unspecified)	-3.4	7.9	-2.0	i	-7.0	-8.4	-1.7	-0.3
O=C(c1ccc2c(c1)OCO2)N(Cc1ccco1)C1(C(=O)NC2CCCCC2)CCCCC1	-14.7	1.8	2.4	i	7.8	88.5*	-1.9	-2.8
CCCC(=O)N1CCN(c2nc(CC(C)C)c3c(c2C#N)CCC3)CC1	-1.3	-4.8	1.7	i	-11.9	nt	-4.0	-7.4
C=CCNC(=O)c1cc2c(C(F)(F)F)nn(C)c2s1	-17.3	-3.0	2.7	i	-10.5	nt	-1.7	-2.0
O=c1[nH]n(-c2ccccc2)c(=O)c(Cl)c1Cl	nt	7.1	-3.3	i	-4.0	nt	-3.9	-0.6
COc1ccccc1N1CCN(S(=O)(=O)c2ccc3nc(-c4ccccc4)[nH]c3c2)CC1	nt	11.3	-0.8	i	1.8	nt	1.9	-12.8
Cc1cccc(NC(=O)CSc2nnc(CNC(=O)c3ccco3)n2C)c1C	-13.8	nt	nt	i	-9.9	11.6	2.8	-0.6
CCN(CC)S(=O)(=O)c1ccc2[nH]c(=O)c3ccccc3c2c1	-23.6	-12.9	-4.0	i	nt	-12.0	3.8	4.1
Cc1cccc(CSc2nc(N)c(C#N)c(-c3cccs3)c2C#N)c1	-13.8	2.1	3.2	i	4.7	?	2.5	-9.7
C[C@@H](C(=O)NC1CCCCC1)N1C(=O)N2CCc3c([nH]c4ccccc34)[C@@]2(C)C1=O	-15.0	-15.8	-8.7	nt	-9.8	nt	0.3	-11.5
COc1ccc(-c2c(C)nn(-c3ccccc3)c2N)cc1	nt	-16.8	-1.6	i	-4.3	-87.6	3.7	-2.4
Cc1n[nH]c(C)c1S(=O)(=O)N1CCCC(C(=O)N2CCc3ccccc32)C1 (stereo unspecified)	-7.2	-1.5	-10.4	i	-13.8	nt	9.0	-5.0
C#CCOCCOCCOCCNc1nc(N2CCN(C(=O)[C@H]([C@@H](C)CC)n3cc([C@@H](N)Cc4ccc(O)cc4)nn3)CC2)nc(N2CCN(C(=O)[C@H](CCCCN)n3cc([C@@H](N)CO)nn3)CC2)n1	nt	44.5	28.1	i	0.8	nt	nt	nt
CCCCCc1ccc(-c2cn(CC3CCCCC3)nn2)cc1	-6.7	-8.3	3.7	i	30.1	-50.4	0.9	1.1
CC1(C)CC(NC(=O)c2ccncc2)CC(C)(C)N1O	nt	5.1	3.4	i	nt	2.1	2.5	9.5
NS(=O)(=O)c1ccc(CCNC(=O)CSc2nc3ccsc3c(=O)n2C2CC2)cc1	nt	-15.3	-2.4	i	-1.2	-11.7	-1.6	-1.7
O=C(Nc1ncccc1Cl)C1COc2ccccc2O1 (stereo unspecified)	-16.5	-1.3	-2.5	i	-19.2	-52.2	4.8	3.1
Cc1c(OCC(=O)N[C@@H](Cc2ccccc2)C(=O)O)ccc2c3c(c(=O)oc12)CCC3	-1.0	13.3	-6.9	i	-7.2	nt	1.4	3.6
CCC(C)n1c(OC)nc2c1c(=O)n(C)c(=O)n2C (stereo unspecified)	nt	-7.9	-7.0	i	-1.5	1.2	-2.4	1.8
CCc1nc(SCC(=O)N2CCCCC2)c2c(=O)n(C)c(=O)n(C)c2n1	-6.4	-12.0	-10.9	i	-16.4	-0.7	-0.3	-2.6
O=C(N=Nc1c(O)[nH]c2ccc([N+](=O)[O-])cc12)c1ccccc1[N+](=O)[O-]	-3.2	16.3	-11.4	i	1.1	3.1	-1.8	-0.2
COc1ccc(NC(=O)CCCOc2ccc(C(C)=O)cc2)cc1S(=O)(=O)N1CCCCC1	10.2	nt	nt	nt	nt	-9.0	-6.5	-22.9
CN(Cc1ccccc1)C(=O)COC(=O)c1cc([N+](=O)[O-])ccc1N1CCOCC1	nt	nt	nt	i	-17.1	-3.5	-0.9	1.9
O=C(c1cccs1)c1coc2ccc(O)c(CN(CCO)CCO)c12	-20.7	-4.2	-0.1	i	-23.1	-18.8	0.9	2.3
Cc1nn(C(=O)c2cccnc2)c(C)c1Sc1ccccc1	nt	7.2	-2.7	i	-5.2	14.6	-0.9	2.9
COc1ccc(CCC(C)N(C)Cc2ccccc2)cc1 (stereo unspecified)	-10.0	3.1	-1.1	i	-7.2	?	3.2	-1.3
O=C(Cc1ccccc1)Nc1ccc(Cl)cn1	-18.0	-9.2	-6.4	i	6.0	-66.5	2.3	4.5
COC(=O)c1ccccc1NC(=O)C1CCCN(c2nnc(-n3cccc3)s2)C1 (stereo unspecified)	5.1	3.8	49.9	i	nt	-27.5	3.9	-1.2
CCN(CC)C(=O)c1[nH]cnc1C(=O)N[C@@H](CC(C)C)C(=O)OCc1ccccc1	-14.2	3.7	-13.1	i	-1.9	9.2	-3.6	2.7
CC(/C=N/n1c(-c2cc(C)[nH]n2)n[nH]c1=S)=C\c1ccco1	nt	47.2	80.9	i	-20.3	-1.1	1.8	-0.5	eIF4H FP inh retest=24.2;PABP FP inh retest=40.2
(further entries)
SMILES	UUG fidelity	PABP FP inh	eIF4H FP inh	Rce1 inh	CSC inhib	HIV Env fusion	MT1-MMP act inh	MT1-MMP act inh RFP	others
Cc1ccc(C)c(OCC(=O)Nc2ccccc2C(=O)N2CCN(C)CC2)c1	3.7	-7.5	-1.5	i	-16.0	-8.7	1.5	2.0
CCOc1ccc(/C=C2\SC(=O)N(CCNC(=O)CN3C(=O)NC4(CCCC4)C3=O)C2=O)cc1OC	2.1	1.5	-5.4	i	nt	-13.4	-0.9	0.3
O=C(NC(c1ccc(F)cc1)c1ccc2ccccc2n1)C1CCN(CCOc2ccc(Cl)cc2)CC1 (stereo unspecified)	2.9	nt	nt	nt	nt	77.2*	-1.0	-7.7
CC(C)OCCCn1c(=O)c2ccccc2n2c(CCC(=O)O)nnc12	-12.2	6.1	-2.9	i	-2.3	-12.5	0.4	2.1
COc1ccccc1Nc1ncc(C(=O)Nc2ccc(OC)c(OC)c2)c2ccccc12	-8.5	5.4	5.2	i	-6.4	nt	12.7	14.4
Cc1ccc(NC(=O)c2cnn(-c3ccccc3)c2NC(=O)c2ccco2)cc1	-19.5	-12.3	3.0	i	-9.5	nt	2.4	2.5
CC(=O)Nc1ccc(S(=O)(=O)Nc2ccc3c(c2)OCCO3)cc1Cl	-12.6	-0.8	-1.4	i	-0.3	17.0	1.9	-25.5
CCOc1ccc(NC(=O)Cn2cc(C(=O)CC)c3ccccc32)cc1	nt	6.1	3.9	i	-11.6	nt	3.9	2.1
N#CC[C@H](Cc1ccccc1)N1CCN(CCc2ccccc2)CCC1=O	-15.3	4.3	-5.8	i	-3.4	-4.6	-2.7	-0.3
O=C(O)C1CCN(C(=O)CSc2nc3ccccc3s2)CC1	-5.5	-3.1	-8.3	i	-5.2	-4.4	1.6	5.9
CCOc1ccc(N2CC(C(=O)Oc3ccccc3)CC2=O)cc1 (stereo unspecified)	-6.6	nt	nt	i	-1.4	-8.0	-6.1	-9.0
COC(=O)CCC(=O)Nc1ccc(S(=O)(=O)N2CCc3ccccc32)cc1	-11.0	9.8	-8.9	i	-3.3	14.2	1.8	1.7
